Mtb MbtI inh = blocks the Mycobacterium tuberculosis siderophore enzyme MbtI; inhibition, %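 (about 17 µg/mL by stock and volumes)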; purified MbtI enzyme, fluorescence intensity read-out; hit rate 0.89% among 100,000;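 active = above 50% in both replicates, above 80% if mildly self-fluorescent; inactive = the rest, strongly fluorescent compounds included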;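 note: 0% = mean of negative and 100% = mean of positive controls; one replicate is shown; some compounds called inactive have numbers as strong as hits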
Target sequence (P9WFX0 whole entry, looked up): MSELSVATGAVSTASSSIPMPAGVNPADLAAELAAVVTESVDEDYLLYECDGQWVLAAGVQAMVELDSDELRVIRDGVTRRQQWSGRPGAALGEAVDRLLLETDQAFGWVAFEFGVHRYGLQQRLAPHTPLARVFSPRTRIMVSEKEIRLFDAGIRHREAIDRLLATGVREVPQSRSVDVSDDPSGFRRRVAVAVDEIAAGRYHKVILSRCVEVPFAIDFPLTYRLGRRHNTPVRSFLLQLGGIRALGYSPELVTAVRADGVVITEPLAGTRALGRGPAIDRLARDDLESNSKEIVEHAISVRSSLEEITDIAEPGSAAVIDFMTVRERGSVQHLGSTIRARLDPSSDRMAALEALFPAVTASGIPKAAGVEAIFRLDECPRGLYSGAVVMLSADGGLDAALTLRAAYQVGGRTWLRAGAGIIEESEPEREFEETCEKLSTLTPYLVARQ
PV pol inh = poliovirus RNA polymerase inhibition. AID 588519. P03300. hit rate 0.66% among 150,000. poliovirus polymerase elongation, fluorescence polarization; active compounds read low. % elongation, % (compound at 16.7 µg/mL); in the data active = % elongation below about 90%; note: some results filed as inactive read as strong as hits
Target sequence (P03300 1749-2209 limits assumed): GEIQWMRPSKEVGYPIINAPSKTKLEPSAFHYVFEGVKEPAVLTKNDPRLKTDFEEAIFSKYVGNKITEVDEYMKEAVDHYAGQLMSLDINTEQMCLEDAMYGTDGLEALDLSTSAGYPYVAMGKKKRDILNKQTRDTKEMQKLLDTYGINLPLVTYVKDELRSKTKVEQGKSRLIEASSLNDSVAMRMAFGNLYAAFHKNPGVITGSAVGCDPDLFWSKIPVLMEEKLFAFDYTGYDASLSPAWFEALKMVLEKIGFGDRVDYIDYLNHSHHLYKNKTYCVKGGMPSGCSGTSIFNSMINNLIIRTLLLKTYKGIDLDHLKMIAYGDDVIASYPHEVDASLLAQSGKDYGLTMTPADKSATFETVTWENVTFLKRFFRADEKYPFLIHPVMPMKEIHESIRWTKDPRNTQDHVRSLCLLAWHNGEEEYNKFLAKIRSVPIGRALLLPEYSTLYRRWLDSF
Mtb MenB inh = blocks the Mycobacterium tuberculosis MenB enzyme | P9WNP5 | MenB enzyme assay, absorbance read-out; some hits fall short of the stated cut | inhibition, %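 (about 12 µg/mL by stock and volumes)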 | hit rate 0.43% among 100,000 | AID 540299;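 active = mean of two replicates above 30%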;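 note: 0% = no compound and 100% = wells with inactive enzyme; the first replicate is given; strong numbers were not always called active; inactives centre near -10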
PV pol inh intensity = further read-out of PV pol inh, marked with its call; % elongation; measured here: total intensity read-out; formula for this scale not given here;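 total fluorescence in place of polarization; lower means less elongation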
* = called active by the depositor.

Start of the data: the first two entries, to show the layout:
Screening N#CC1=C(N)n2c(s/c(=C\c3ccco3)c2=O)=C(C#N)C1c1ccco1 (stereo not drawn) returned PV pol inh 121.0, Mtb MenB inh -3.6 and PV pol inh intensity 147.0.
`Nc1[nH]c(=O)[nH]c(=O)c1N=Nc1ccccc1Cl` gave Mtb MbtI inh 5.7, PV pol inh 103.0, Mtb MenB inh -85.6 and PV pol inh intensity 103.0.

The listing, previewed entries included:
Screening N#CC1=C(N)n2c(s/c(=C\c3ccco3)c2=O)=C(C#N)C1c1ccco1 (stereo not drawn) returned PV pol inh 121.0, Mtb MenB inh -3.6 and PV pol inh intensity 147.0.
`Nc1[nH]c(=O)[nH]c(=O)c1N=Nc1ccccc1Cl` gave Mtb MbtI inh 5.7, PV pol inh 103.0, Mtb MenB inh -85.6 and PV pol inh intensity 103.0.
Cc1ccccc1-n1c(C)[n+](C)c2ccccc21 was read as Mtb MbtI inh 0.5, PV pol inh 102.0 and PV pol inh intensity 100.0.
For COC(=O)/C(=C/C=C/c1ccccc1)NC(=O)c1ccccc1 the results were Mtb MbtI inh -0.8, PV pol inh 99.0, Mtb MenB inh 0.6 and PV pol inh intensity 95.0.
COc1ccc(Br)cc1CNC(C)(C)CO was read as Mtb MbtI inh 8.8, PV pol inh 100.0, Mtb MenB inh 11.9 and PV pol inh intensity 100.0.
CCc1ccc(NC(=O)C2CCCN(S(=O)(=O)N3CCOCC3)C2)cc1 (stereo not drawn) was read as Mtb MbtI inh -6.8, PV pol inh 103.0, Mtb MenB inh -2.5 and PV pol inh intensity 101.0.
For Cc1cc(C)c(C)c(S(=O)(=O)N2CCN(C(=O)c3ccco3)CC2)c1C the results were Mtb MbtI inh 2.3, PV pol inh 101.0, Mtb MenB inh 4.3 and PV pol inh intensity 104.0.
For O=C(O)C1CCC(c2ccc(-c3ccccc3)cc2)CC1 (stereo not drawn) the results were Mtb MbtI inh 2.8, PV pol inh 102.0, Mtb MenB inh -5.3 and PV pol inh intensity 104.0.
Screening COc1ccc(NC(=O)CNc2cccc3c2CCCC3)cc1 returned Mtb MbtI inh -3.2, PV pol inh 103.0 and PV pol inh intensity 96.0.
Screening CN(C)c1ccc(/C=C2/C(=O)ON=C2c2ccccc2)cc1 returned Mtb MbtI inh 5.7, PV pol inh 102.0, Mtb MenB inh -19.6 and PV pol inh intensity 101.0.
Screening CC(=O)N1CCN(c2nc(N)c3c(N)nc4c(c3c2C#N)CC(=O)N4C)CC1 returned Mtb MbtI inh -18.4, PV pol inh 18.0*, Mtb MenB inh 2.5 and PV pol inh intensity 34.0*.
For CC1CN(C(=O)c2cc3c(s2)CCC3)CC(C)O1 (stereo not drawn) the results were Mtb MbtI inh -1.5, PV pol inh 102.0 and PV pol inh intensity 100.0.
CC(C)CC(NC(=O)C1CCCCC1)C(=O)NCc1ccccn1 (stereo not drawn) was read as Mtb MbtI inh -1.4, PV pol inh 103.0, Mtb MenB inh -14.4 and PV pol inh intensity 104.0.
Screening CCC(C)(C)NC(=O)Cn1nnc(-c2ccc(OC)cc2)n1 returned Mtb MbtI inh -8.8, PV pol inh 102.0, Mtb MenB inh 1.7 and PV pol inh intensity 101.0.
`O=C(CCN1C(=O)c2ccccc2C1=O)Nc1ccc(S(=O)(=O)Nc2nccs2)cc1` gave Mtb MbtI inh 3.0, PV pol inh 104.0, Mtb MenB inh -24.9 and PV pol inh intensity 107.0.
CCc1cc2c(=O)n(NC(=S)NC)cnc2s1 was read as Mtb MbtI inh 1.6, PV pol inh 101.0, Mtb MenB inh -8.0 and PV pol inh intensity 101.0.
`O=C1C(c2c(O)n(-c3cc(Cl)cc(Cl)c3)[nH]c2=O)=Nc2ccccc21` gave Mtb MbtI inh 84.0*, PV pol inh 103.0, Mtb MenB inh 2.6 and PV pol inh intensity 104.0.
Screening O=S(=O)(c1cccc2cccnc12)N(CCc1ccccc1)Cc1ccccc1 returned Mtb MbtI inh 14.7, PV pol inh 101.0, Mtb MenB inh -22.5 and PV pol inh intensity 95.0.
`COC(=O)c1c(C)[nH]c(C(=O)COC(=O)Cn2cc(C(F)(F)F)ccc2=O)c1C` gave Mtb MbtI inh 5.5, PV pol inh 102.0, Mtb MenB inh 1.9 and PV pol inh intensity 107.0.
N#Cc1c(-c2cccs2)cc(-c2ccccc2)nc1OCC(=O)c1ccccc1 was read as Mtb MbtI inh 142.2, PV pol inh 105.0, Mtb MenB inh -2.1 and PV pol inh intensity 110.0.
COc1ccc(-c2noc(CNC3CCCCC3)n2)cc1 was read as Mtb MbtI inh -3.2, PV pol inh 100.0, Mtb MenB inh -2.2 and PV pol inh intensity 103.0.
Screening CC1Cc2cc(S(=O)(=O)NCCN3CCN(Cc4ccccc4)CC3)ccc2N1C(=O)C1CC1 (stereo not drawn) returned Mtb MbtI inh -17.5, PV pol inh 102.0, Mtb MenB inh -23.5 and PV pol inh intensity 103.0.
For O=C(CSC1=NCCN1)N1CCc2ccccc21 the results were Mtb MbtI inh 4.3, PV pol inh 99.0 and PV pol inh intensity 105.0.
`CN1CCN(C(=O)Cn2ncc3c4ccccc4n(C)c3c2=O)CC1` gave Mtb MbtI inh 85.0, PV pol inh 100.0, Mtb MenB inh 5.5 and PV pol inh intensity 102.0.
COc1cc(/C=C/C(=O)O)ccc1Cc1ccc(C(=O)O)o1 was read as Mtb MbtI inh 1.5, PV pol inh 97.0, Mtb MenB inh -26.7 and PV pol inh intensity 90.0.
Screening CNC(=O)CSc1nnc(-c2ccccc2F)n1C1CCCCC1 returned Mtb MbtI inh 86.9, PV pol inh 101.0, Mtb MenB inh -19.8 and PV pol inh intensity 93.0.
CCOc1cc(N2CCOCC2)c(OCC)cc1NC(C)=O was read as PV pol inh 104.0, Mtb MenB inh -16.5 and PV pol inh intensity 104.0.
Screening Cc1ccc(CSc2nc3ccc(C(=O)NCCN4CCOCC4)cc3n2C)cc1 returned Mtb MbtI inh 11.7, PV pol inh 103.0, Mtb MenB inh -20.6 and PV pol inh intensity 101.0.
O=C1Nc2ccccc2/C1=N\N=C1/SCC(=O)N1c1ccc(O)cc1 was read as Mtb MbtI inh -13.4, PV pol inh 97.0, Mtb MenB inh -72.5 and PV pol inh intensity 102.0.
O=c1[nH]c2ccccc2n1CCOc1ccccc1 was read as PV pol inh 109.0, Mtb MenB inh -20.4 and PV pol inh intensity 101.0.
Screening COc1cc(OC)nc(/N=C/N(C)C)n1 returned Mtb MbtI inh 0.2, PV pol inh 102.0, Mtb MenB inh 2.5 and PV pol inh intensity 96.0.
`CCOC(=O)C1C(=O)C=C(Nc2ccc(C(F)(F)F)cc2)CC1c1ccccc1` (stereo not drawn) gave PV pol inh 107.0, Mtb MenB inh -14.4 and PV pol inh intensity 110.0.
For Cc1ccc(C(=O)NCc2ccc3[nH]c4c(c3c2)CCCC4)cc1C the results were Mtb MbtI inh -5.7, PV pol inh 102.0, Mtb MenB inh -8.1 and PV pol inh intensity 107.0.
Screening O=C(Nc1ccc(Cl)c(Cl)c1)OCc1cccnc1 returned Mtb MbtI inh -10.1, PV pol inh 103.0, Mtb MenB inh -3.2 and PV pol inh intensity 106.0.
Screening O=C(CSc1nnc(COc2ccccc2)o1)Nc1ccccc1 returned Mtb MbtI inh 13.1, PV pol inh 99.0, Mtb MenB inh -5.7 and PV pol inh intensity 98.0.
CN(C)C(=O)NC1C=CS(=O)(=O)C1 (stereo not drawn) was read as Mtb MbtI inh -7.9, PV pol inh 100.0, Mtb MenB inh -2.7 and PV pol inh intensity 101.0.
`N#Cc1ccc(S(=O)(=O)N2CCNC(=O)C2CC(=O)Nc2cc(Cl)ccc2Cl)cc1` (stereo not drawn) gave Mtb MbtI inh -14.2, PV pol inh 102.0, Mtb MenB inh -4.7 and PV pol inh intensity 102.0.
For CC(=O)Nc1c(O)c2ccccc2oc1=O the results were PV pol inh 101.0, Mtb MenB inh 13.5 and PV pol inh intensity 106.0.
`COC(C(=O)Nc1ccccc1C(=O)N1CCOCC1)c1ccccc1` (stereo not drawn) gave Mtb MbtI inh -6.6, PV pol inh 102.0, Mtb MenB inh -13.7 and PV pol inh intensity 104.0.
For OCCn1c(CSc2ccccc2)nc2ccc(Cl)cc21 the results were Mtb MbtI inh 36.5, PV pol inh 104.0, Mtb MenB inh -16.9 and PV pol inh intensity 98.0.
Screening O=C(O)CCN=CC1=C(O)CC(c2ccccc2)CC1=O (stereo not drawn) returned Mtb MbtI inh 13.8, PV pol inh 102.0, Mtb MenB inh -30.4 and PV pol inh intensity 105.0.
`OCCN(CCO)c1nc2ccccc2[nH]1` gave Mtb MbtI inh -12.6, PV pol inh 103.0, Mtb MenB inh 0.9 and PV pol inh intensity 102.0.
Screening O=C(Cn1nc(-c2ccccc2)ccc1=O)NCC1COCCO1 (stereo not drawn) returned Mtb MbtI inh 6.6, PV pol inh 101.0, Mtb MenB inh -29.9 and PV pol inh intensity 103.0.
Screening N#Cc1ccc(COC(=O)CC2CCCC2)cc1 returned Mtb MbtI inh -6.5, PV pol inh 107.0, Mtb MenB inh -0.6 and PV pol inh intensity 102.0.
For Cc1oc2c(c1C(=O)NCCc1ccccc1)C(=O)c1ccccc1C2=O the results were Mtb MbtI inh 8.6, PV pol inh 105.0, Mtb MenB inh -6.5 and PV pol inh intensity 106.0.
Screening CCN(CC)S(=O)(=O)c1ccc(NC(=O)COC(=O)Cc2cccs2)cc1 returned Mtb MbtI inh 6.2, PV pol inh 103.0, Mtb MenB inh 1.5 and PV pol inh intensity 100.0.
`CCOc1ccc(NC(=O)CSc2nnnn2C2CCCC2)cc1` gave Mtb MbtI inh 0.4, PV pol inh 101.0, Mtb MenB inh -39.2 and PV pol inh intensity 99.0.
`CC(=O)N(Cc1cc2ccccc2[nH]c1=O)C1CCCCC1` gave Mtb MbtI inh 78.0, PV pol inh 104.0, Mtb MenB inh -42.2 and PV pol inh intensity 102.0.
`CCC(Sc1c[nH]c2ccccc12)C(=O)O` (stereo not drawn) gave Mtb MbtI inh -5.0, PV pol inh 99.0, Mtb MenB inh 14.6 and PV pol inh intensity 101.0.
COc1ccc(C2(O)CC3CCC(C2)N3)cc1 (stereo not drawn) was read as Mtb MbtI inh -16.5, PV pol inh 103.0, Mtb MenB inh -20.3 and PV pol inh intensity 100.0.
For O=C(CN1CCC(n2nnc3cc(C(F)(F)F)ccc32)CC1)N1CCc2ccccc21 the results were Mtb MbtI inh -4.5, PV pol inh 107.0, Mtb MenB inh -50.5 and PV pol inh intensity 102.0.
O=C(O)CCN1C(=O)c2ccccc2Sc2ncccc21 was read as Mtb MbtI inh -14.8, PV pol inh 102.0, Mtb MenB inh -16.5 and PV pol inh intensity 102.0.
CCc1ccccc1NC(=O)CCC(=O)N1CCCn2nc(C)cc21 was read as Mtb MbtI inh -11.4, PV pol inh 103.0, Mtb MenB inh -14.2 and PV pol inh intensity 103.0.
`Cn1cc(C=Nc2ccccc2)c2ccccc21` gave Mtb MbtI inh 7.5, PV pol inh 101.0 and PV pol inh intensity 104.0.
For Cc1ccc(N2C(=O)N(Cc3cc(=O)n4ccsc4n3)C(=O)C2C)cc1 (stereo not drawn) the results were Mtb MbtI inh 22.0, PV pol inh 110.0, Mtb MenB inh 5.0 and PV pol inh intensity 119.0.
`CCc1ccc(NC(=O)CSc2ccccc2)cc1` gave Mtb MbtI inh 6.3, PV pol inh 100.0, Mtb MenB inh -22.0 and PV pol inh intensity 100.0.
For O=C(NCc1cn2ccsc2n1)C1c2ccccc2Oc2ccccc21 the results were Mtb MbtI inh -8.9, PV pol inh 96.0, Mtb MenB inh -16.5 and PV pol inh intensity 101.0.
Screening CC1(C)CC(N2CCCC2)=C/C(=N/NC(=O)c2cccnc2)C1 returned Mtb MbtI inh -17.9, PV pol inh 100.0, Mtb MenB inh -113.1 and PV pol inh intensity 111.0.
`COc1cccc(OC)c1C(=O)OCC(=O)c1cc2ccccc2o1` gave Mtb MbtI inh 3.6, PV pol inh 104.0, Mtb MenB inh -22.2 and PV pol inh intensity 108.0.
Cc1cc(OCC(O)CN2C(C)CCCC2C)ccc1C(C)C (stereo not drawn) was read as Mtb MbtI inh -2.6, PV pol inh 100.0, Mtb MenB inh 5.4 and PV pol inh intensity 111.0.

Retrieved by compound from above, three records:
CCc1ccccc1NC(=O)CCC(=O)N1CCCn2nc(C)cc21 was read as Mtb MbtI inh -11.4, PV pol inh 103.0, Mtb MenB inh -14.2 and PV pol inh intensity 103.0.
For O=C(NCc1cn2ccsc2n1)C1c2ccccc2Oc2ccccc21 the results were Mtb MbtI inh -8.9, PV pol inh 96.0, Mtb MenB inh -16.5 and PV pol inh intensity 101.0.
For Cc1ccc(N2C(=O)N(Cc3cc(=O)n4ccsc4n3)C(=O)C2C)cc1 (stereo not drawn) the results were Mtb MbtI inh 22.0, PV pol inh 110.0, Mtb MenB inh 5.0 and PV pol inh intensity 119.0.

The list goes on.
For CN(C)c1ccc(/C=C2\C(=N)N3N=C(S(C)(=O)=O)SC3=NC2=O)cc1 the results were Mtb MbtI inh 9.2, PV pol inh 86.0, Mtb MenB inh -384.1 and PV pol inh intensity 190.0.
For CC(=O)N1CCC2(CC1)C(C#N)=C(N)SC(N)=C2C#N the results were Mtb MbtI inh 2.4, PV pol inh 97.0, Mtb MenB inh -80.0 and PV pol inh intensity 101.0.
For CCOC(=O)C1CCN(CN2C(=O)C3(SCC(=O)N3c3cccc(Cl)c3)c3ccccc32)CC1 (stereo not drawn) the results were Mtb MbtI inh 8.7, PV pol inh 101.0, Mtb MenB inh -0.5 and PV pol inh intensity 103.0.
Cc1ccc(NCN2C(=O)c3ccccc3C2=O)cc1 was read as Mtb MbtI inh 1.7, PV pol inh 98.0, Mtb MenB inh 0.4 and PV pol inh intensity 105.0.
For CN(C(=O)CCOc1ccccc1)c1c(N)n(Cc2ccccc2)c(=O)[nH]c1=O the results were Mtb MbtI inh 0.4, PV pol inh 107.0, Mtb MenB inh -13.0 and PV pol inh intensity 105.0.

Source: PubChem
